Screens: PubChem BioAssay, National Center for Advancing Translational Sciences (NCATS)
NS1 function inh – inhibitors of influenza NS1 protein function. S. cerevisiae slowed by influenza A NS1, growth recovery by OD600. Potency, µM (top dose mostly 46.1 µM), without a hit: at the top dose activity, positive = more growth. 0.4% of 270,000 active. AID 2326; active means well fitted rising curve with a large enough effect; inconclusive means small, poorly fitted or top-dose-only effect; inactive means no such curve, though single readings can be large or run the other way; note: nearly all actives have a fitted effect of over 50% in size
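Recovery from NS1-induced slow growth read by OD600 in budding yeast switched to galactose assay medium (pH 6.0, -URA) at 1:100 dilution. Compound 23 nl per well; the matching strain lacking NS1 serves as control.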
Cruzain inh Det – blocks cruzain activity in presence of Triton detergent; P25779; purified cruzain, Z-FR-AMC fluorescence, 0.01% Triton; Potency, µM, inactives show max response, negative = inhibition, usual class: inhibitors; 0.43% of 200,000 active; AID 1478;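 note: plate controls were neutral wells for no effect and buffer without enzyme for full effect; nearly all actives have a fitted effect of over 40% in size; top concentration of the series not given in the record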
Target sequence (P25779 123-467 limits assumed): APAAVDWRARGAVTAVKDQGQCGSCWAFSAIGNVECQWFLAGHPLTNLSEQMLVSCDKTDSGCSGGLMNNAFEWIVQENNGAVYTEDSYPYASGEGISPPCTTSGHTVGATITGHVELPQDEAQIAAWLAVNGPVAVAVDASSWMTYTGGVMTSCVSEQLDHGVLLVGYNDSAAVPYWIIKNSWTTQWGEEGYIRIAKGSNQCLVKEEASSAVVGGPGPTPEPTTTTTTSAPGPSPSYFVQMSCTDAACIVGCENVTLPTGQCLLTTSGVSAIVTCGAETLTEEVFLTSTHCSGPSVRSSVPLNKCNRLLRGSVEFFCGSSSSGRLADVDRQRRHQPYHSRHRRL
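Z-FR-AMC hydrolysis (2 uM substrate) by cruzain (1.5 nM) monitored kinetically at ex 360/em 450 nm after 15 min room-temperature compound exposure; 0.01% Triton X-100, pH 5.5, 5 mM DTT.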
SARS PLP yeast – SARS-CoV PLP inhibition in yeast; S. cerevisiae expressing SARS-CoV PLpro, growth rescue; control for the full effect not named in the record; Potency, µM (series often up to 32.9 µM), for inactives: at the top dose activity, positive = growth rescue; 0.19% of 330,000 active; active means well fitted rising curve with a large enough effect; inconclusive means small, poorly fitted or top-dose-only effect; inactive means no such curve, though single readings can be large or run the other way; note: 0% is about no effect; nearly all actives have a fitted effect of over 55% in size; growth read by luminescence after 48 h
LASV entry inh – inhibitors of Lassa virus binding or cell entry; AID 540256; 1.2% of 300,000 active; Potency, µM (top dose mostly 37.9 µM), without a hit: at the top dose activity change, negative = inhibition, most hits filed as inhibitors; Lassa virus pseudotype entry inhibition, cell reporter; control for the full effect not named in the record; active means well fitted inhibition curve with a large enough effect; inconclusive means small, poorly fitted or top-dose-only effect, or effect the other way; inactive means flat fitted curve, though single readings scatter; tested in HEK293 cells; note: % is set by controls: 0 for no effect and ±100 for the full control effect; nearly all actives have a fitted effect of over 50% in size; luciferase read-out
Cruzain inh noDet – cruzain (T. cruzi) inhibition without detergent | purified cruzain, Z-FR-AMC fluorescence, no detergent | Potency, µM, without a hit: max response, negative = inhibition, actives largely listed as inhibitors | 2.3% of 200,000 active | P25779;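 note: plate controls were enzyme without inhibitor for no effect and buffer without enzyme for full effect; nearly all actives have a fitted effect of over 40% in size; top concentration of the series not given in the record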
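Detergent-free condition (0.00005% Triton X-100) in acetate buffer pH 5.5 with DTT. 1.5 nM enzyme and compound were pre-mixed 15 min, then 2 uM Z-FR-AMC substrate added; reaction progress from fluorescence change between first and third reads (60 s).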
2A StopGo – lowers the luciferase signal of an FMDV 2A StopGo reporter. 1.2% of 410,000 active. Potency, µM (highest dose often 57.9 µM), for the others: top-dose signal change, negative = less light. AID 1159524. human cells with a luciferase reporter of 2A StopGo recoding; control for the full effect not named in the record; active = well fitted falling curve with a large enough effect; inconclusive = small, poorly fitted or top-dose-only effect; inactive = no such curve, though single readings can be large or run the other way; tested in HEK293T cells; note: % is set by controls: 0 for no effect and ±100 for the full control effect; nearly all actives have a fitted effect of over 45% in size; luciferase light after 4 h
RE007 growth inh – less growth of the S. pombe RE007 Vpr strain | S. pombe RE007 Vpr strain, BacTiter-Glo ATP luminescence, 24 h; control for the full effect not named in the record | Potency, µM (highest dose often 92.2 µM), for the others: at the highest dose activity change, negative = less growth | 0.21% of 360,000 active; active = well fitted falling curve with a large enough effect; inconclusive = small, poorly fitted or top-dose-only effect; inactive = no such curve, though single readings can be large or run the other way;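 note: % is set by controls: 0 for no effect and ±100 for the full control effect; nearly all actives have a fitted effect of over 50% in size; the assay follows cell death caused by Vpr and the record does not say whether a fall means rescue or toxicity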
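Fission yeast strain RE007, carrying one chromosomally integrated HIV-1 vpr copy, was seeded at OD 0.01 in PMG+AL medium with 23 nL pinned compound. After 24 h at 30 °C and 99% humidity, viability was read by BacTiter-Glo luminescence.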
MARV entry inh – Marburg virus entry inhibition. Marburg virus pseudotyped entry inhibition, cell reporter; control for the full effect not named in the record; about a third of the inactives were read at about 46 µM. Potency, µM (top dose mostly 37.8 µM), inactives show at the top dose activity change, negative = inhibition, most hits filed as inhibitors. AID 540276. 1.8% of 300,000 active; active = well fitted inhibition curve with a large enough effect; inconclusive = small, poorly fitted or top-dose-only effect, or effect the other way; inactive = flat fitted curve, though single readings scatter; tested in HEK293 cells; about a fifth of its hits are not listed in these tables; note: % is set by controls: 0 for no effect and ±100 for the full control effect; luciferase read-out
Starred values were filed as active, the others as inactive; ? = inconclusive; nt = no result given; & = joins results of further samples; [ ] = dose if it differs, or a comment. Unless noted, calls come from the whole dose curve; as a rule, active = well fitted curve in the direction sought with a large enough effect; inconclusive = small, poorly fitted or top-dose-only effect, or another doubt; inactive = no such curve, though single readings can be large; an effect the other way counts as inactive or inconclusive. Potency is the fitted concentration of half-maximal effect.

cpd	Compound	NS1 function inh	Cruzain inh Det	SARS PLP yeast	LASV entry inh
1	O=C(CSc1nc2cc(C(=O)NC3CCCC3)ccc2c(=O)n1CC1CCCO1)c1cccc(Cl)c1 (configuration not stated)	nt	-22%	nt	-6%[46.1 µM]
2	CCOC(=O)C1C(c2ccc(O)cc2)NC(=O)NC1(O)C(F)(F)F (configuration not stated)	?	nt	5%	nt
3	CCOC(=O)N1CCC(NC2CCCCCCC2)CC1	-10%	4.4%	5%	-7%
4	CCOc1ccc(N2C(=O)C3C(c4ccccc4)=NN(c4ccccc4)C3C2=O)cc1 (configuration not stated)	-4%	-20%	-15%	-3%
5	CCN(CC)C(=O)Cn1c(=O)n(CCCCCC(=O)NCc2ccc(C)cc2)c(=O)c2sccc21	nt	0.0%	nt	6%[46.1 µM]
6	O=C1C(C=NC2CC2)=C(O)c2ccccc21	-24%	-3.5%	-5%	?
7	Cc1ccc(S(=O)(=O)c2nnn3c2nc(N2CCOCC2)c2sccc23)cc1C	nt	-7.7%	nt	10%[46.1 µM]
8	CCC(CC)NC(=O)COc1ccc(OC)cc1C=O	0%	nt	-1%	10%

cpd	Cruzain inh noDet	2A StopGo	RE007 growth inh	MARV entry inh
1	-26%	-9%	nt	nt
2	nt	-11%	-18%	nt
3	1%	-13%	2%	?
4	20µM*	-12%	38%	8%
5	-2%	1%	nt	16%[46.1 µM]
6	-10%	30%[activator]	2%	21%
7	?	-6%	nt	nt
8	nt	-4%	-2%	-5%[46.1 µM]

Just MARV entry inh and Cruzain inh noDet, for three of the compounds above:
nr | SMILES | MARV entry inh | Cruzain inh noDet
3 | CCOC(=O)N1CCC(NC2CCCCCCC2)CC1 | ? | 1%
4 | CCOc1ccc(N2C(=O)C3C(c4ccccc4)=NN(c4ccccc4)C3C2=O)cc1 (configuration not stated) | 8% | 20µM*
5 | CCN(CC)C(=O)Cn1c(=O)n(CCCCCC(=O)NCc2ccc(C)cc2)c(=O)c2sccc21 | 16%[46.1 µM] | -2%

Other entries
cpd	Compound	NS1 function inh	Cruzain inh Det	SARS PLP yeast	LASV entry inh
9	CN(C(=O)c1ccccc1C(=O)OCC(=O)NCc1cccs1)C1CCCCC1	nt	nt	2%	-11%[46.1 µM]
10	CCc1ccc2c(COn3nnc4ccc(S(=O)(=O)N(C)C)cc43)cc(=O)oc2c1	-20%	-7.1%	-3%	-24%
11	CCOc1ccc(/C=N/NC(=O)c2nnn(-c3nonc3N)c2CN2CCC(C)CC2)cc1	14%	nt	-1%	-18%
12	CC(C)Cn1c(SCC(=O)NCc2ccc(Cl)cc2)nnc1-c1cccc(S(=O)(=O)N2CCOCC2)c1	-3%	1.4%	3%	-36%
13	CCN(CC)c1ccc(C(NC(C)=O)NC(C)=O)cc1	-2%	2.7%	8%	-5%
14	CCCCC(=O)N/N=C/c1c(O)n(CCc2ccc(OC)c(OC)c2)c(=O)[nH]c1=O	-10%	7.6%	-3%	-10%
15	CCCCCn1c(CN(C)Cc2ccccc2)nc2c1c(=O)n(C)c(=O)n2C	-17%	-1.8%	2%	?
16	COc1ccc(CN(Cc2cccn2C)S(=O)(=O)c2cccc(C(F)(F)F)c2)cc1	0%	nt	-4%	nt

cpd	Cruzain inh noDet	2A StopGo	RE007 growth inh	MARV entry inh
9	nt	-5%	1%	-4%[46.1 µM]
10	9%	-21%	3%	?
11	nt	-22%	-5%	-6%[46.1 µM]
12	?	?	6%	?
13	-1%	-5%	-9%	14%
14	22%	-5%	22%	24%
15	?	-11%	2%	?
16	nt	9%	-4%	nt

Other results
cpd	Compound	NS1 function inh	Cruzain inh Det	SARS PLP yeast	LASV entry inh
17	Cc1cc(NC(=O)CSCC(=O)Nc2ccccc2OC(F)F)no1	nt	nt	0%	-15%
18	CCOC(=O)Cc1cc(=O)n2[nH]cc(-c3ccc(Cl)cc3)c2n1	10%	nt	1%	14%[46.1 µM]
19	COc1ccc(OC)c(-c2csc(N(Cc3ccco3)C(=O)c3cccs3)n2)c1	-9%	-2.8%	8%	6%
20	CC(C)CNC(=O)CSc1nnc(CN2CCCCCC2=O)n1-c1ccccn1	5%	5.3%	-8%	10%
21	O=C(Nc1ccccc1)Nc1ccccc1C(=O)NCc1ccccc1	-3%	-8.4%	-1%	-15%
22	CCOC(=O)C1CCN(C(=O)c2ccc(Cl)c(NC3=NC4CS(=O)(=O)CC4S3)c2)CC1 (configuration not stated)	-9%	1.0%	7%	5%
23	Cn1c(CNC(=O)CNC(=O)Cc2ccc(Cl)cc2)cc(=O)n(C)c1=O	-1%	nt	-3%	nt
24	N/C(=N\OC(=O)c1ccc(=O)n(Cc2ccccc2)c1)c1ccccn1	-3%	nt	-2%	?

cpd	Cruzain inh noDet	2A StopGo	RE007 growth inh	MARV entry inh
17	nt	-9%	-17%	-1%[46.1 µM]
18	nt	-11%	8%	?
19	-4%	-22%	-14%	?
20	4%	nt	-2%	19%
21	0%	25%	3%	7%
22	9%	-19%	-2%	-18%
23	nt	-2%	8%	nt
24	nt	35%[activator]	-11%	?

The list continues:
cpd	Compound	NS1 function inh	Cruzain inh Det	SARS PLP yeast	LASV entry inh
25	Cn1c(SCC(=O)NCc2cccs2)nnc1-c1cccs1	-16%	3.5%	nt	18%
26	Cc1ccc(C)c(OCCC(=O)OC(C)C(=O)Nc2c(C)n(C)n(-c3ccccc3)c2=O)c1 (configuration not stated)	nt	nt	-5%	6%
27	O=c1ccc(-c2ccc(S(=O)(=O)Nc3ccc(F)cc3)s2)n[nH]1	7%	nt	-2%	7%[46.1 µM]
28	CCCCC(=O)Nc1ccc(OCc2cc(=O)n3c(C)csc3n2)cc1	nt	-0.2%	nt	-7%[46.1 µM]
29	CN(C(=O)CSc1nnc(COc2ccccc2F)n1N)C1CCCCC1	nt	nt	3%	-9%
30	CCOC(=O)c1[nH]c2ccc(OC)cc2c1NC(=O)CCN1CCc2ccccc2C1	-4%	-2.7%	-5%	12%
31	Cc1ccc(NC(=O)CC2SCCNC2=O)cc1Cl (configuration not stated)	2%	-1.2%	0%	22%
32	O=C(O)C1=C[C@@H](c2ccccc2)C[C@@H](OCc2ccc(CO)cc2)O1	-1%	nt	-1%	nt

cpd	Cruzain inh noDet	2A StopGo	RE007 growth inh	MARV entry inh
25	-2%	7%	-9%	?
26	nt	-14%	12%	2%
27	nt	32%[activator]	16%	?
28	2%	0%	nt	0%[46.1 µM]
29	nt	-17%	4%	13%[46.1 µM]
30	8%	?	3%	?
31	5%	64%[activator]	1%	?
32	nt	-2%	10%	nt

Later entries:
cpd	Compound	NS1 function inh	Cruzain inh Det	SARS PLP yeast	LASV entry inh
33	CCCCCC(=O)Nc1ccc(-c2nnc3n2CCCCC3)cc1	-6%	nt	3%	0%[46.1 µM]
34	Cc1cc(C(=O)NC(C)c2ccncc2)no1 (configuration not stated)	4%	5.3%	3%	?
35	COc1ccccc1C(=O)NC(=O)Cn1nc(C)c([N+](=O)[O-])c1C	nt	nt	-2%	-1%[46.1 µM]
36	N#CCCn1cc(/C=C2\NC(=S)N(c3ccccc3)C2=O)c(-c2ccc(F)cc2)n1	9%	nt	0%	-16%[46.1 µM]
37	CCCn1ncc(C(=O)O)c1C	-6%	-2.8%	-2%	20%
38	Cc1nn(-c2ccccc2)c(C)c1NC(=O)COC(=O)[C@@H](NC(=O)c1ccccc1)C(C)C	nt	nt	5%	9%
39	CCOc1cc(/C=N/NC(=O)C(=O)NC)cc(Br)c1O	-9%	-5.5%	-10%	-4%
40	Cc1ccsc1/C=N/N1CCN(c2ccccc2)CC1	-14%	-2.5%	1%	?

cpd	Cruzain inh noDet	2A StopGo	RE007 growth inh	MARV entry inh
33	nt	0%	19%	?
34	-5%	7%	-3%	13%
35	nt	-7%	2%	2%
36	nt	-26%	3%	?
37	6%	-13%	12%	?
38	nt	-21%	1%	15%
39	2%	-11%	-26%	?
40	-11%	47%[activator]	-9%	3%

Next part.
cpd	Compound	NS1 function inh	Cruzain inh Det	SARS PLP yeast	LASV entry inh
41	O=S(=O)(Nc1nccs1)c1ccc(NCc2cc(Br)cc(Br)c2O)cc1	-2%	nt	-1%	nt
42	CC(C)N(C(=O)COC(=O)c1ccc(Cl)nc1)C(C)C	12%	nt	1%	nt
43	Cc1ccc(CNC(=O)CCNS(=O)(=O)c2ccc3c(c2)c(=O)n(C)c(=O)n3C)cc1	-8%	5.8%	-1%	-30%[14.3 µM]
44	O=C(CSc1ncnc2nc[nH]c12)NCCc1ccccc1	9%	3.4%	3%	4%
45	O=C(CCN1C(=O)S/C(=C\c2ccc(Cl)cc2)C1=O)Nc1ccc(C(=O)O)cc1	-7%	nt	5%	-2%
46	O=C(CSc1n[nH]c(-c2ccccc2O)n1)NC1CCCCC1	-4%	nt	1%	?
47	COc1ccc(C2c3ccc4ccccc4c3Oc3ncn(Cc4ccco4)c(=N)c32)cc1OC (configuration not stated)	?	-13%	0%	?
48	CN(C)C(=O)CSc1nnc([C@@H](N)Cc2ccccc2)o1	1%	20µM*	3%	5%
49	CC(C)CCNC(=O)c1cc(Sc2ccc(F)cc2F)nc2ccccc12	nt	1.2%	nt	-17%[46.1 µM]
50	Cc1cccc2c1N(CCOc1ccccc1)C(=O)C2=O	nt	nt	-7%	?

cpd	Cruzain inh noDet	2A StopGo	RE007 growth inh	MARV entry inh
41	nt	27%	-1%	nt
42	nt	2%	4%	nt
43	1%	9%	0%	-1%&-19%
44	1%	-6%	4%	17%
45	nt	-5%	0%	-3%
46	nt	-24%	-2%	-26%[46.1 µM]
47	9%	-40%	1%	?
48	25µM*	14%	-7%	-11%
49	-10%	-12%	nt	nt
50	nt	-4%	36%	?
